Mtb H37Rv – M. tuberculosis H37Rv growth inhibitors, H37Rv strain (AID 1626); M. tuberculosis H37Rv growth inhibition; higher % means a stronger effect; inhibition, % at 10 µM; hits with a dose series show IC50 in µM; 220,000 compounds, 0.95% hits;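 active means confirmed in a dose series; inconclusive means inhibition above 80% but not taken into the dose series; inactive means below 80% or under 30% at every dose of the series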;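 further: bacteria incubated seven days before Alamar blue readout; 0% = bacteria only wells and 100% = bacteria with antibiotic wells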
YopH inh – YopH (Yersinia) phosphatase inhibition; fluorescence Ex485/Em525; inhibition, %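 (about 10 µM by stock and volumes)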; 140,000 compounds, 0.16% hits; AID 898;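 active means inhibition of 50% or more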;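 further: controls were vehicle for no effect and minimum signal wells for full effect; inactives centre near -20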
RecA intein inh – Mtb RecA intein splicing inhibition | P9WHJ3 | 290,000 compounds, 0.75% hits | cell-free RecA intein splicing, fluorescence | inhibition, %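 (about 9 µM by stock and volumes)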; in the data active means inhibition above about 30%; inconclusive means no clear call, values can overlap the other calls;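 further: 0% = vehicle wells and 100% = reference inhibitor control wells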
Target sequence (P9WHJ3 whole entry, looked up): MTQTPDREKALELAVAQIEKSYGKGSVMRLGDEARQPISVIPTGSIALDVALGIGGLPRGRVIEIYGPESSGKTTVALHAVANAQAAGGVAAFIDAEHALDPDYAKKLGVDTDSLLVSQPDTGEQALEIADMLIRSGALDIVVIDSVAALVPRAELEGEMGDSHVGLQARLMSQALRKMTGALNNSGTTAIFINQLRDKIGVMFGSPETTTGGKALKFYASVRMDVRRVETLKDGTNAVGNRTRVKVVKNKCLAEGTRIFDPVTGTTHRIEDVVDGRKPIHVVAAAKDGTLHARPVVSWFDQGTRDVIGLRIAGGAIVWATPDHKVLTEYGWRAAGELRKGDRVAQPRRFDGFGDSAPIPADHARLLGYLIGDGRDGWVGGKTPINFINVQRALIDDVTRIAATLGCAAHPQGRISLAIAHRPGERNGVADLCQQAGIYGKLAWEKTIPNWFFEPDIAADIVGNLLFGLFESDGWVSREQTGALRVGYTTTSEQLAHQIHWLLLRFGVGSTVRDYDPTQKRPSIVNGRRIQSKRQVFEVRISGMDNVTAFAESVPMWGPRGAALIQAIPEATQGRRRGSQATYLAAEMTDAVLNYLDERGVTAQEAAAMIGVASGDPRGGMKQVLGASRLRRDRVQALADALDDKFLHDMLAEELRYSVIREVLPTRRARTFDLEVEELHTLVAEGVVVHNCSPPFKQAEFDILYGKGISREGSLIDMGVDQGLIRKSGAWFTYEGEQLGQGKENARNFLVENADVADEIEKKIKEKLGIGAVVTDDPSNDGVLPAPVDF
Arbovirus inh – blocks arbovirus infection. inhibition, % at 10 µM. arbovirus infection cell-based antiviral screen. 200,000 compounds, 0.37% hits. AID 1251;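 active means inhibition from about 30%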;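 further: bluetongue infection of BSR cells; cell survival read as ATP light after 72 h; 0% = infected wells without compound and 100% = uninfected wells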
Mtb betalactam – beta-lactam sensitization of Mtb H37Rv. AID 434955. M. tuberculosis H37Rv growth with meropenem, percent inhibition; hits of this screen are not shown here. 330,000 compounds, 0.27% hits. inhibition, % at 25 µM;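 active means about 74% or more and at least 40 points above the plate without the antibiotic, then above 30% in a dose series; inconclusive means first-round hits that could not be retested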;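 further: growth measured after seven days incubation then overnight dye step; 0% = bacteria only wells and 100% = bacteria with antibiotic; twin plates without the antibiotic show which effects depend on it; some results filed as inactive read as strong as hits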
Arbovirus inh repeat – also measured in Arbovirus inh; calls as there; inhibition, %; measured here: 10K subset replicate screen; many hits read low in the repeat;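 first of two repeat runs on a subset; 0% = infected and 100% = uninfected wells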
Starred values were filed as active, the others as inactive; ? = inconclusive; . = not tested or not shown. A portion of the library; the hit share may differ from the screen's.

SMILES	Mtb H37Rv	YopH inh	RecA intein inh	Arbovirus inh	Mtb betalactam	others
Cc1ccccc1NC(=O)N1CCCC(c2nc(-c3ccc(C(C)C)cc3)no2)C1 (centres undefined)	10%	-46	-0.9	6	42
CCN(CC)CCCNC(=S)N(Cc1cccnc1)Cc1cc2cc(C)ccc2[nH]c1=O	1%	.	3.0	.	-7
CC(C)(C)OC(=O)NCCc1nnc(SCC(=O)c2ccc(Cl)cc2)o1	-3%	10	0.8	3	-6
CC(=O)Nc1ccc(NC(=O)c2c(C)nn(Cc3ccccc3Cl)c2C)cc1	.	.	0.2	.	0
N#Cc1c(N)sc(=S)c2c1CCCC2	-11%	-4	1.3	0	-7
C[N+]1(CC(O)COc2ccccc2)CCN(C(=O)c2ccc([N+](=O)[O-])cc2)CC1 (centres undefined)	4%	-43	-0.9	2	-2
CCOC(=O)N1CCC(NC(=O)C2CCN(S(=O)(=O)c3cnc[nH]3)CC2)CC1	-3%	-9	4.1	5	0
CCc1c(-c2ccccc2)nc2ccccc2c1C(=O)N1CCC2(CC1)OCCO2	.	.	-1.1	.	-4
C/C(=N\NC(=O)c1ccc([N+](=O)[O-])cc1Cl)c1ccccc1	-2%	.	0.1	-3	-6
COc1ccc(OC)c(N/C=C/C(=O)c2ccccc2)c1	.	.	-3.2	.	93

Copied from the entries so far (3 entries):
SMILES	Mtb H37Rv	YopH inh	RecA intein inh	Arbovirus inh	Mtb betalactam	others
CCOC(=O)N1CCC(NC(=O)C2CCN(S(=O)(=O)c3cnc[nH]3)CC2)CC1	-3%	-9	4.1	5	0
CCc1c(-c2ccccc2)nc2ccccc2c1C(=O)N1CCC2(CC1)OCCO2	.	.	-1.1	.	-4
C/C(=N\NC(=O)c1ccc([N+](=O)[O-])cc1Cl)c1ccccc1	-2%	.	0.1	-3	-6

Returning to the listing with the four entries that preceded the break.
SMILES	Mtb H37Rv	YopH inh	RecA intein inh	Arbovirus inh	Mtb betalactam	others
CCOC(=O)N1CCC(NC(=O)C2CCN(S(=O)(=O)c3cnc[nH]3)CC2)CC1	-3%	-9	4.1	5	0
CCc1c(-c2ccccc2)nc2ccccc2c1C(=O)N1CCC2(CC1)OCCO2	.	.	-1.1	.	-4
C/C(=N\NC(=O)c1ccc([N+](=O)[O-])cc1Cl)c1ccccc1	-2%	.	0.1	-3	-6
COc1ccc(OC)c(N/C=C/C(=O)c2ccccc2)c1	.	.	-3.2	.	93
COc1ccc(C(=O)NCc2cccnc2)cc1OC	-5%	-37	-0.8	-2	12
Cc1cc(SCC(=O)c2ccccc2)n2nc(C)nc2n1	-4%	-40	0.7	-3	-2	Arbovirus inh repeat=-1
Cc1ccc(N2N=C(C(=O)O)CCC2=O)cc1Cl	.	.	0.2	.	5
Cc1ccc(C(=O)Nc2cc3ccccc3oc2=O)cc1	-6%	.	.	-24	-5
O=C(Nc1ccc(OCC(=O)N2CCOCC2)cc1)Nc1cccc2ccccc12	-8%	.	-0.9	4	11
COc1ccc(-n2nc(C(=O)NCC(=O)N3CCN(c4ccccn4)CC3)c3ccccc3c2=O)c(OC)c1	.	.	-0.5	.	-4
Cc1onc(-c2ccccc2Cl)c1C(O)c1ccc(F)cc1 (centres undefined)	.	.	4.1	.	-2
Nc1nc(NS(=O)(=O)c2ccc(Cl)cc2)nn1-c1ccccc1	1%	.	0.0	.	-2
COC(=O)c1ccccc1OC(=O)c1cccnc1	-1%	-12	2.3	3	-6
O=C(O)c1ccc(CNCc2ccc(Cl)cc2)cc1	1%	8	-2.0	5	1
COc1ccc(C(CNC(=O)c2cc(C)on2)N(C)C)cc1 (centres undefined)	.	.	1.4	.	7
CCC(=O)N1CCc2cc(S(=O)(=O)CCC(=O)NCCC3=CCCCC3)ccc21	.	-23	0.0	11	0
O=C(Nc1cccc(Cl)c1)c1cc(S(=O)(=O)N2CCCCC2)c[nH]1	.	.	-1.1	.	-1
O=C(NCc1cccnc1)C1CC(=O)N(c2ccc(F)cc2)C1 (centres undefined)	2%	-24	1.0	4	-11	Arbovirus inh repeat=3
COc1cc(C(=S)N2CCCC2)cc(Cl)c1OCC(=O)Nc1ccc(C)cc1C	5%	3	2.1	9	?
Cc1ccc(NC(=O)c2cc(C)nc3ccccc23)cc1	.	.	-1.0	.	-4
CC(=O)NS(=O)(=O)c1ccc(NC(=S)NC(=O)CC(C)C)cc1	4%	.	-4.1	4	-6
Cc1cc(C)n2c(SC/C(O)=C(\C#N)c3nc4ccccc4[nH]3)nnc2n1	-4%	-17	3.7	7	12
O=C(NCc1ccccn1)c1cc2n(n1)C(C(F)(F)F)CC(c1ccco1)N2 (centres undefined)	4%	-19	3.6	1	12
CC1CCCN(CCOCCOc2ccc(Cl)cc2Br)C1 (centres undefined)	8%	-27	-0.8	-2	3
COCCCn1c(=NC(=O)c2ccccc2)c(C#N)cc2c(=O)n3cccc(C)c3nc21	-5%	.	-420	.	9
CCCC(=O)Nc1c(-c2cccc(OC)c2)c(=O)c2ccccc2n1C	.	.	0.8	.	1
CC(O)CNCCOc1cccc(Oc2ccccc2)c1 (centres undefined)	1%	.	-1.8	-28	3
Cc1cccc(NC(=O)/C(=C\c2ccco2)NC(=O)c2cccs2)c1	1%	-34	-3.5	5	5
CCn1c(=O)cc(OCC(=O)NCCC(C)C)c2ccccc21	-2%	-18	3.7	-3	-11
Cc1cc(C)nc(N(C#N)CC(=O)N(c2ccccc2)C(C)C)n1	6%	-45	2.3	6	-4
Cc1c(C(=O)NCCC2=CCCCC2)oc2ccc(S(=O)(=O)N3CCC4(CC3)OCCO4)cc12	0%	-3	8.4	8	-2
CCOC(=O)c1c(NC(=O)CN2C(=O)C(=O)N(CC(C)C)C2=O)sc(C)c1CC	.	.	-1.9	.	-5
CC1CCCCN1CCn1cnc2c([nH]c3ccccc32)c1=O (centres undefined)	5%	-43	1.7	-3	5	Arbovirus inh repeat=-4
CCOC(=O)c1cc(NC(=O)NC2CCCCC2)c(C)nc1C	.	.	0.4	.	-1
COc1ccccc1CC(NC(C)=O)C(=O)NC1CCN(C(=O)Nc2ccccc2C)CC1 (centres undefined)	.	.	-5.2	.	2
O=C(OCc1cccc([N+](=O)[O-])c1)c1cc(=O)[nH]c2ccccc12	-2%	.	1.0	-3	-1
COc1cc2nc(CN3C(=O)c4ccccc4C3=O)oc(=O)c2cc1OC	-4%	-42	4.4	15	10
Cc1ccc(OCC(=O)NNC(=O)c2ccco2)c(C)c1	.	.	-1.7	.	2
COc1ccc(NS(=O)(=O)c2ccc(NC(C)=O)cc2)cc1OC	0%	-44	0.6	11	-10	Arbovirus inh repeat=8
CCCCCn1c(C(C)NC(=O)CCC)nc2ccccc21 (centres undefined)	6%	-35	-2.8	1	-5	Arbovirus inh repeat=-3
CN1/C(=C/C(=S)NC(=O)C2CCC2)C(C)(C)c2ccccc21	11%	.	0.1	3	-5
Cc1ccccc1OCC(=O)OCC(=O)NCc1cccs1	2%	-12	3.8	6	-5
O=C(Nc1ccccc1)c1nccn1Cc1ccc(F)cc1	11%	.	3.0	-14	-2
CN(C)Cc1c(C(=O)N/N=C/c2cccc(OCc3ccccc3)c2)nnn1-c1nonc1N	.	.	-4.7	.	6
CCN1CCN(C(=O)c2cc(COc3ccc(C(C)=O)cc3OC)on2)CC1	.	.	-1.4	.	5
Cc1ccc(Nc2c(-c3ccccn3)nc3cccc(C)n23)cc1	2.7µM*	.	2.8	-26	97
COc1cc(C(=O)NCC(=O)N/N=C(/C)c2cccs2)cc(OC)c1OC	4%	-16	0.8	6	-9
Cc1cccc(-c2noc(Cc3ccccc3)n2)c1	0%	-2	4.0	1	2
COc1cc(/C=C2\SC(=S)N(NS(=O)(=O)c3ccc(C)cc3)C2=O)cc(OC)c1OC	-18%	.	3.8	.	13
O=C(Nc1cccc(Cl)c1)Nc1nnc(CC2=CCCCC2)s1	9%	-24	2.1	13	1
COc1ccccc1-n1cnnc1SCC(=O)Nc1cccc(S(=O)(=O)N2CCCCC2)c1	-11%	-28	-2.6	-1	1
CC(=O)c1ccc(N2CCN(S(=O)(=O)c3cn(C)cn3)CC2)cc1	.	.	-1.3	.	1
COc1ccccc1CNS(=O)(=O)c1cc2c3c(c1)CCC(=O)N3CCC2	.	.	1.2	.	-6
O=C(CSc1ccc2nnc(-c3ccccn3)n2n1)Nc1ccc2c(c1)OCO2	-2%	-52	-0.8	-4	-2

Looked up by structure from above, 2 records:
SMILES	Mtb H37Rv	YopH inh	RecA intein inh	Arbovirus inh	Mtb betalactam	others
COc1cc(/C=C2\SC(=S)N(NS(=O)(=O)c3ccc(C)cc3)C2=O)cc(OC)c1OC	-18%	.	3.8	.	13
COc1ccccc1CNS(=O)(=O)c1cc2c3c(c1)CCC(=O)N3CCC2	.	.	1.2	.	-6

The listing continues:
SMILES	Mtb H37Rv	YopH inh	RecA intein inh	Arbovirus inh	Mtb betalactam	others
CC(C)CCN1CCN(Cc2cccc3cccnc23)CC1CCO (centres undefined)	1%	.	1.1	-10	-5
O=C(/C=C/c1ccc(Cl)cc1)c1ccc([N+](=O)[O-])o1	.	.	-7.9	.	100
CCc1ccc(C2C(C#N)=C(N)N(N(C)C)C3=C2C(=O)CCC3)s1 (centres undefined)	-5%	-21	4.3	-2	-7
CCNC(=O)CP(=O)(c1ccccc1)c1ccccc1	-12%	-36	2.8	6	-1
O=C(CSc1n[nH]c(-c2ccco2)n1)Nc1ccc(F)cc1	.	.	-5.9	.	34
NS(=O)(=O)c1cccc(NC(=O)COC(=O)/C=C/c2ccco2)c1	1%	.	-0.3	2	-4
O=C(CSc1ccc(-c2ccc(F)cc2)nn1)NCC1CCCO1 (centres undefined)	5%	.	-0.4	-4	1
O=C(NCc1ccc(F)cc1)Nc1ccccc1	.	.	-3.4	.	-10
CCc1ccccc1NC(=O)c1ccc([N+](=O)[O-])s1	>100µM*	.	-0.7	-20	15
CCOc1ccc(OCCSc2nc3ccccc3o2)cc1	70%	-3	3.4	6	56
COc1ccc(-c2noc(-c3ccccc3-c3ccccc3)n2)cc1	5%	-112	7.3	1	-1
CCOc1ccc(/C=N/OCC(=O)Nc2ccc3c(c2)OCO3)cc1	?	.	-0.2	-22	96
O=C(Nc1ccccc1C(=O)O)c1ncn[nH]1	-7%	-53	-0.2	10	.
CN(c1ccccc1)S(=O)(=O)c1ccc(NC(=O)c2ccco2)cc1	10%	.	5.2	1	-3
COC(=O)C1=C(O)CSC1=Nc1cccc(C(F)(F)F)c1	-4%	-26	0.8	2	-2	Arbovirus inh repeat=-3
COc1ccc(Oc2cc(C(F)(F)F)cnc2C(N)=O)cc1	-7%	4	1.2	3	-10
Cc1sc2ncnc(N3CCC(C(=O)Nc4nc5ccc(Cl)cc5s4)CC3)c2c1C	.	.	-2.2	.	-1
CC1(O)C(=O)c2ccccc2N(c2ccccc2)C1=O (centres undefined)	9%	-3	-0.6	3	0
O=C(CCCn1cncn1)N1CCCC(N2CCN(c3ccccc3F)CC2)C1 (centres undefined)	.	.	-7.0	.	1
Cc1ccc(C2CC(=O)C=C(O)C2)cc1 (centres undefined)	-8%	-14	1.6	5	6
O=C(NCCCN1CCOCC1)C(=O)NCc1ccc(Cl)cc1	-5%	.	3.3	2	-17
O=C(C1CCN(S(=O)(=O)c2cnc[nH]2)CC1)N1CCN(c2ccc([N+](=O)[O-])cc2)CC1	.	.	3.5	.	6
O=Cc1c(Cl)[nH]c(=O)n1-c1ccccc1	-7%	.	.	6	.
CCc1cccc(C)c1NC(=S)N(Cc1cccnc1)Cc1ccco1	-5%	-8	0.7	-1	-1
CCOc1ccc(-c2cc(C(=O)NCCCn3ccnc3)c3ccccc3n2)cc1	-5%	.	2.5	-31	89
N/C(=N\OC(=O)COc1ccc(Cl)cc1Cl)c1cccnc1	1%	-6	2.2	-16	-4
O=C(c1ccc(Cl)cc1)c1ccc(OCC(O)CN2CCCCC2)cc1 (centres undefined)	-7%	-6	-0.2	-27	0
CCn1c(CNC(=O)c2cc(OC)c(OC)c(OC)c2)cc2cc(C)ccc21	.	.	-0.8	.	12
Cc1ccc(CNC(=O)CCS(=O)(=O)c2ccc3c(c2)CC(C)N3C(=O)C2CC2)cc1 (centres undefined)	.	.	-2.1	.	5
Cc1ccccc1NC(=O)CSc1ccc(-c2ccco2)nn1	3%	-21	3.1	-1	-3
CCOc1ccc(C(=O)NN2C(=O)C3C4C=CC(O4)C3C2=O)cc1 (centres undefined)	4%	-27	-6.1	5	68
CCNS(=O)(=O)c1ccc(NC(=S)N2CCc3ccccc32)cc1	.	.	0.1	.	-3
OCCNC(=S)Nc1ccc2nsnc2c1	3%	.	46*	-7	-3
CCOc1c(Br)cc(C(N)=O)cc1OC	1%	-38	-0.5	-3	-4	Arbovirus inh repeat=1
COc1ccc(C(=O)C2CCCN(C(=O)CSC)C2)cc1OC (centres undefined)	.	.	-1.0	.	-2
CC(=O)N/C(=C\c1ccccc1)C(=O)OC(C)C(=O)NCc1ccccc1 (centres undefined)	.	.	-1.9	.	-6

Screens deposited in PubChem by several laboratories.
